# FGF22 binding: binders of human FGF22 protein, primary screen, FGF22 synaptogenesis inhibitor project, biophysical, thermal shift, single point | Fibroblast growth factor 22 (Homo sapiens), Q9HCT0 | 1.5% of 340,000 active | calls only at 9.99 µM | recombinant FGF22 thermal shift, SYPRO orange fluorescence; percent of sucrose octasulfate shift, DMSO zero;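 active = melting point raised past a set limit in the mean and every replicate; three in four hits are not shown here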
# Target sequence (Q9HCT0 whole entry, looked up): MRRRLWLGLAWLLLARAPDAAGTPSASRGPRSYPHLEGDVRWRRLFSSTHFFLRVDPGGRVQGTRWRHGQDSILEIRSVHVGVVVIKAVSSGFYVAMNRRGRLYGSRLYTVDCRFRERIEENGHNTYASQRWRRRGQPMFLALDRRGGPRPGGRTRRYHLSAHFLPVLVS
# rRNA inh HTS: reduced GFP signal of wild-type E. coli, primary screen, bacterial rRNA inhibitor project, GFP/RFP fluorescence, OD600, single point. E. coli WT GFP vs humanized-ribosome RFP mutants, 24 h; stronger effect = lower value; DMSO median 0, no signal -100. GFP signal change (wild-type ribosome), % (no concentration beside the values). 1.6% of 350,000 active. AID 720706, 2013;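 active = significant combined selectivity score with lowered wild-type GFP, culture density cut under 30%, mutant RFP and density less affected; inactive = any of these conditions unmet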; note: one replicate is shown; some compounds called inactive have numbers as strong as hits
# rRNA inh HTS OD600: second read-out of rRNA inh HTS, no call of its own (marks repeat the call); OD600 change, %; measured here: OD600 growth;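 optical density of the mix in the first replicate; 0 = DMSO median and -100 = no signal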
# rRNA inh HTS RFP: second read-out of rRNA inh HTS, no call of its own (marks repeat the call); RFP signal change, %; measured here: RFP humanized mutant strains;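 first replicate; 0 = DMSO median and -100 = no signal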
# Active calls of the source: *; i = inactive.
canonical_smiles | FGF22 binding | rRNA inh HTS | rRNA inh HTS OD600 | rRNA inh HTS RFP
C[C@@H]1CN([C@@H](C)CO)C(=O)c2cccc(NS(=O)(=O)c3cccs3)c2O[C@H]1CN(C)Cc1ccc(Oc2ccccc2)cc1 | i | 5 | 0 | 2.1
COc1ccc(NC(=O)Nc2cccc3c2O[C@H](CN(C)Cc2ccncc2)[C@@H](C)CN([C@H](C)CO)C3=O)cc1 | i | 2 | 2 | -2.9
CO[C@H]1CN(C)C(=O)c2cc(NC(C)=O)ccc2OC[C@H](C)N(C(=O)c2ccncc2)C[C@H]1C | i | 3 | 2 | 0.9
COC(=O)C1=C(C)N(Cc2ccc(F)cc2)C(=S)NC1c1cccc(Cl)c1 (stereo not drawn) | i | -14 | -10 | -3.9
C[C@@H]1CN([C@@H](C)CO)C(=O)c2cc(NC(=O)c3ccccc3)ccc2O[C@@H](C)CCCCO[C@H]1CN(C)C(=O)C1CCCCC1 | i | 0 | -2 | 1.2
COc1ccc(CN(C)C[C@H]2OCCCC[C@@H](C)Oc3ccc(NC(=O)Nc4ccc(OC)cc4)cc3C(=O)N([C@H](C)CO)C[C@@H]2C)cc1 | i | 4 | 10 | -0.3
CO[C@H]1CN(C)C(=O)c2ccc(NC(=O)c3cccc(F)c3)cc2OC[C@H](C)N(CC2CC2)C[C@@H]1C | i | -3 | -2 | -0.1
Cc1ccc(S(=O)(=O)Nc2ccc3c(c2)C(=O)N([C@H](C)CO)C[C@H](C)[C@H](CN(C)C(=O)Nc2ccc(C(F)(F)F)cc2)OCCCC[C@@H](C)O3)cc1 | i | 1 | 4 | -2.4
C[C@@H]1CN([C@H](C)CO)C(=O)c2cc(N(C)C)ccc2O[C@@H]1CN(C)Cc1ccc(C(=O)O)cc1 | i | -1 | -1 | 0.4
C[C@H](CO)N1C[C@H](C)[C@H](CN(C)S(=O)(=O)c2ccc(F)cc2)OCCCC[C@H](C)Oc2ccc(NC(=O)CCCCCC(=O)Nc3ccccc3N)cc2C1=O | i | -1 | 1 | 1.4
COCC(=O)N(C)C[C@H]1Oc2cc(C#CCC(C)C)ccc2S(=O)(=O)N([C@H](C)CO)C[C@H]1C | i | -2 | -7 | 1.7
C[C@H]1CN([C@@H](C)CO)C(=O)c2cc(NC(=O)CCC(F)(F)F)ccc2O[C@@H]1CN(C)C(=O)Nc1cccc2ccccc12 | i | -3 | -9 | -0.5
CC(C)CC#Cc1ccc2c(c1)O[C@H](CN(C)Cc1cncnc1)[C@@H](C)CN([C@@H](C)CO)S2(=O)=O | i | -18 | -46 | 19
CCOC(=O)Nc1cc(=O)c([N+](=O)[O-])c(N)[nH]1 | i | 7 | 15 | 2.2
CO[C@H]1CN(C)C(=O)c2ccc(NC(=O)c3ccccc3F)cc2OC[C@@H](C)N(C(=O)c2ccccc2F)C[C@@H]1C | i | -1 | 0 | -2.6
C[C@H]1CN([C@@H](C)CO)C(=O)c2cccc(NC(=O)c3ccncc3)c2O[C@H]1CN(C)S(=O)(=O)c1cn(C)cn1 | i | -1 | 14 | -2.5
CCCNC(=O)N1[C@@H](CO)[C@@H](c2ccccc2)C12CN(C(=O)c1cccnc1)C2 | i | -1 | -1 | -4.8
CO[C@H]1CN(C)C(=O)c2cc(NS(=O)(=O)c3ccccc3C)ccc2OC[C@H](C)N(C)C[C@@H]1C | i | 0 | 10 | -5.2
Cc1noc(C)c1S(=O)(=O)N(C)C[C@H]1Oc2ccc(NS(=O)(=O)c3cn(C)cn3)cc2C(=O)N([C@@H](C)CO)C[C@H]1C | i | 4 | 14 | 0.2
C[C@H](CO)N1C[C@H](C)[C@H](CN(C)C)Oc2ccc(NC(=O)Cc3cn(C)c4ccccc34)cc2C1=O | i | 3 | -6 | -1.4
COc1ccc(NC(=O)Nc2ccc3c(c2)C(=O)N([C@@H](C)CO)C[C@@H](C)[C@H](CN(C)C(=O)Nc2ccc(F)cc2)O3)cc1 | i | -2 | -2 | -4.7
Cc1ccc(S(=O)(=O)Nc2ccc3c(c2)C(=O)N([C@@H](C)CO)C[C@@H](C)[C@@H](CN(C)C(=O)Nc2ccc(F)cc2)O3)cc1 | i | 3 | -4 | 0.9
Cc1noc(C)c1NC(=O)N[C@@H]1CC[C@H](CC(=O)NCc2ccc(Cl)c(Cl)c2)O[C@H]1CO | i | -2 | -2 | -0.8
C[C@H](CO)N1C[C@H](C)[C@H](CN(C)Cc2ccc(-c3ccccc3)cc2)Oc2ccc(NC(=O)Nc3ccccc3)cc2CC1=O | i | -3 | -5 | 2.9
Cc1ccc(S(=O)(=O)N(C)C[C@H]2Oc3c(NC(=O)Nc4ccc(C(F)(F)F)cc4)cccc3C(=O)N([C@@H](C)CO)C[C@H]2C)cc1 | i | 1 | 4 | 1.4

# An excerpt from the list above, as a working copy:
canonical_smiles | FGF22 binding | rRNA inh HTS | rRNA inh HTS OD600 | rRNA inh HTS RFP
CO[C@H]1CN(C)C(=O)c2ccc(NC(=O)c3ccccc3F)cc2OC[C@@H](C)N(C(=O)c2ccccc2F)C[C@@H]1C | i | -1 | 0 | -2.6
C[C@H]1CN([C@@H](C)CO)C(=O)c2cccc(NC(=O)c3ccncc3)c2O[C@H]1CN(C)S(=O)(=O)c1cn(C)cn1 | i | -1 | 14 | -2.5
CCCNC(=O)N1[C@@H](CO)[C@@H](c2ccccc2)C12CN(C(=O)c1cccnc1)C2 | i | -1 | -1 | -4.8
CO[C@H]1CN(C)C(=O)c2cc(NS(=O)(=O)c3ccccc3C)ccc2OC[C@H](C)N(C)C[C@@H]1C | i | 0 | 10 | -5.2
Cc1noc(C)c1S(=O)(=O)N(C)C[C@H]1Oc2ccc(NS(=O)(=O)c3cn(C)cn3)cc2C(=O)N([C@@H](C)CO)C[C@H]1C | i | 4 | 14 | 0.2
C[C@H](CO)N1C[C@H](C)[C@H](CN(C)C)Oc2ccc(NC(=O)Cc3cn(C)c4ccccc34)cc2C1=O | i | 3 | -6 | -1.4
COc1ccc(NC(=O)Nc2ccc3c(c2)C(=O)N([C@@H](C)CO)C[C@@H](C)[C@H](CN(C)C(=O)Nc2ccc(F)cc2)O3)cc1 | i | -2 | -2 | -4.7
Cc1ccc(S(=O)(=O)Nc2ccc3c(c2)C(=O)N([C@@H](C)CO)C[C@@H](C)[C@@H](CN(C)C(=O)Nc2ccc(F)cc2)O3)cc1 | i | 3 | -4 | 0.9
Cc1noc(C)c1NC(=O)N[C@@H]1CC[C@H](CC(=O)NCc2ccc(Cl)c(Cl)c2)O[C@H]1CO | i | -2 | -2 | -0.8
C[C@H](CO)N1C[C@H](C)[C@H](CN(C)Cc2ccc(-c3ccccc3)cc2)Oc2ccc(NC(=O)Nc3ccccc3)cc2CC1=O | i | -3 | -5 | 2.9
Cc1ccc(S(=O)(=O)N(C)C[C@H]2Oc3c(NC(=O)Nc4ccc(C(F)(F)F)cc4)cccc3C(=O)N([C@@H](C)CO)C[C@H]2C)cc1 | i | 1 | 4 | 1.4

# Next section
canonical_smiles | FGF22 binding | rRNA inh HTS | rRNA inh HTS OD600 | rRNA inh HTS RFP
C[C@@H]1CN([C@@H](C)CO)C(=O)c2cc(NC(=O)Nc3ccccc3)ccc2O[C@@H](C)CCCCO[C@@H]1CN(C)Cc1ccccc1 | i | 0 | -1 | 16
C[C@@H]1CN([C@@H](C)CO)C(=O)c2cccc(NS(=O)(=O)c3ccccc3)c2O[C@@H]1CN(C)S(=O)(=O)c1ccc(F)cc1 | i | -1 | 5 | 0.7
C[C@H](CO)N1C[C@H](C)[C@@H](CN(C)C(=O)C2CC2)Oc2cc(C#Cc3ccncc3)ccc2S1(=O)=O | i | -3 | 1 | -0.2
O=C(C[C@H]1C[C@@H]2c3cc(NC(=O)C4CCOCC4)ccc3O[C@@H]2[C@@H](CO)O1)NCCN1CCCCC1 | i | 4 | 12 | -0.7
C[C@@H]1CN([C@H](C)CO)C(=O)c2cccc(NC(=O)NC3CCCCC3)c2O[C@H]1CN(C)C(=O)Nc1cccc2ccccc12 | i | -6 | -6 | 3.5
COc1ccc(Sc2cccc(Cl)c2)c(C(=O)O)c1 | i | -3 | -16 | -0.2
Cc1noc(C)c1NC(=O)N(C)C[C@H]1Oc2ccc(NC(=O)Nc3cccc4ccccc34)cc2C(=O)N([C@@H](C)CO)C[C@@H]1C | i | 0 | 7 | -1.6
C[C@H](CO)N1C[C@H](C)[C@@H](CN(C)C(=O)c2cccc(F)c2)Oc2cc(-c3cccc(F)c3)ccc2S1(=O)=O | i | -10 | -26 | 2.3
COc1cccc(NC(=O)N2C[C@H](O)COC[C@@H]3O[C@@H](CC(=O)NC4CCCC4)CC[C@H]32)c1 | i | 1 | -10 | -2.8
C[C@@H]1CN([C@@H](C)CO)C(=O)Cc2cc(NC(=O)C3CC3)ccc2O[C@H]1CN(C)C(=O)Nc1ccccc1 | i | -1 | -3 | -2.4
COC(=O)C[C@H]1CC[C@@H](N)[C@@H](CO)O1 | i | 1 | 3 | -0.4
C[C@@H]1CN([C@H](C)CO)C(=O)c2cc(C3=CCCCC3)cnc2O[C@H]1CN(C)C(=O)Nc1ccccc1 | i | -1 | 8 | -2.5
C/C=C/c1ccc2c(c1)O[C@H](CN(C)C(=O)c1cccc(F)c1)[C@@H](C)CN([C@@H](C)CO)S2(=O)=O | i | 1 | -2 | 0.2

# Screening results (PubChem BioAssay)

# These rows are one share of the data (hit frequency here may not be typical).
